D2 agonist: agonists of human D2 dopamine receptor (beta-arrestin); P14416; DiscoveRx PathHunter D2 beta-arrestin, luminescence, 90 min; 100% = 57 uM dopamine signal; activation, % (no concentration beside the values); actives 0.084% (n = 360,000); AID 624465; in the data active = activation above about 40%; inconclusive = about 15% to 40%; inactive = below about 15%; also: compound concentration not given in the record; the text of the record calls up to 30% inactive
Target sequence (P14416 whole entry, looked up): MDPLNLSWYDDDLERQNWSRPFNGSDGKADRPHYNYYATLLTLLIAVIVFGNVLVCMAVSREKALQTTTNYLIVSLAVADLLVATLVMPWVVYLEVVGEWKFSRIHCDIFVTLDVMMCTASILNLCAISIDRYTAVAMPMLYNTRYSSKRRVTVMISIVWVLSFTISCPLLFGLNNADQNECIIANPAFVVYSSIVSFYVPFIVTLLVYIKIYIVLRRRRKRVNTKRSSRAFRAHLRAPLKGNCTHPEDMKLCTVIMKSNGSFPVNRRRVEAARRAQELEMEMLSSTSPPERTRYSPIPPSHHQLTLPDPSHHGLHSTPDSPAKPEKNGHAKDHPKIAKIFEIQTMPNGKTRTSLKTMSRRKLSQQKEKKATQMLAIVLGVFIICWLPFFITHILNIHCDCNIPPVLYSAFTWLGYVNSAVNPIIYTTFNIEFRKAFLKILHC
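DiscoveRx PathHunter D2 beta-arrestin cells (2,100/well) attached overnight, then compound-stimulated 90 min at 37 C in HBSS/10 mM HEPES/0.1% Tween-20 buffer; beta-galactosidase complementation read by luminescence after 1 h at ambient temperature. Dopamine 57 uM final (EC100) as control.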
PINK1 modulator: PINK1 expression modulation; Potency, µM (top dose mostly 76.6 µM), without a hit: at the highest dose activation (PINK1 increase), actives largely listed as activators; PINK1 immunofluorescence, high-content cytometry, 24 h; actives 0.2% (n = 410,000); active = well fitted activation curve with a large enough effect; inconclusive = small, poorly fitted or top-dose-only effect; inactive = flat fitted curve, though single readings scatter; cell line not stated here;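 also: potency is read from the fitted curve at half-maximal effect; % of control where 0% means no effect; nearly all actives have a fitted effect of over 65% in size; a mitochondrial uncoupler was the plate control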
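Stable cell line, 250 cells/well, 12 h attachment; compounds pinned at 5 concentrations, 24 h; CCCP control. Fixed with nuclear dye, primary antibodies 12 h at 10 degrees C, secondary plus cell stain; laser-scanning cytometer read.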
Sfp inh: inhibitors of Bacillus subtilis Sfp phosphopantetheinyl transferase; Biochemical Sfp PPTase activity, qHTS; Potency, µM, inactives show max response, negative = inhibition, actives largely listed as inhibitors; actives 3.5% (n = 310,000); Q9F4F7; AID 1490; active = well fitted inhibition curve with a large enough effect; inconclusive = small, poorly fitted or top-dose-only effect, or another doubt; inactive = no such curve, though single readings can be large or run the other way;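 also: the enzyme is Sfp with the accession as filed and its product quenches rhodamine fluorescence; potency is read from the fitted curve at half-maximal effect; 0% = enzyme reaction without inhibitor and -100% = no enzyme wells; top concentration of the series not given in the record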
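After 15 min at room temperature with compound, 15 nM Sfp received 5 uM rhodamine-CoA plus 12.5 uM BHQ-2-ybbR (50 mM Hepes pH 7.6, 10 mM MgCl2). Rate came from the fluorescence difference over 30 min, ex 525/em 598 nm.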
Menin MLL FP FL: menin-MLL binding inhibition, fluorescein peptide; Fluorescence polarization, fluorescein-MLL peptide displacement from menin; FP activity change, % at 61.4 µM; 290,000 tested, under 10 active; inconclusive = falling polarisation curve, or a change in total fluorescence; inactive = total fluorescence flat and polarisation flat or rising; no compound was filed as active; the % refers to the polarisation; negative = inhibition;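 also: % of control where 0% means no effect; inhibitors lower the polarisation; unlabelled MLL peptide was the positive control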
ClpP mod: qHTS Assay for Activators of ClpP. ATP-dependent Clp protease proteolytic subunit (Bacillus subtilis (strain 168)), P80244. purified B. subtilis ClpP, FRET peptide cleavage, 20 min. Potency, µM (top dose mostly 57.5 µM), without a hit: top-dose activity change, negative = active. actives 1.9% (n = 340,000); active = well fitted falling curve with a large enough effect; inconclusive = small, poorly fitted or top-dose-only effect; inactive = no such curve, though single readings can be large or run the other way; also: potency is read from the fitted curve at half-maximal effect; the source files actives as falling curves though it sought activators and does not explain the sign; nearly all actives have a fitted effect of over 65% in size; many hits overshoot -100%
Target sequence (P80244 whole entry, looked up): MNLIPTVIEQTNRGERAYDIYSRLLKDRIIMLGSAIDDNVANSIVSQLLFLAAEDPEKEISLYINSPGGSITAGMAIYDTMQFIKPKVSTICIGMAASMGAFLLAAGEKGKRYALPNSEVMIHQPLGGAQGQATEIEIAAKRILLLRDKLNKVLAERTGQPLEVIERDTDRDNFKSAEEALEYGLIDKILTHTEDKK
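ClpP 10 microg/mL final, pH 8 Tris/KCl buffer with BSA, glycerol, Tween-20; compound pinned in; FRET-FV substrate; RT 20 min; Ex320/Em430; ΔFRET vs ADEP 5.8 microM, DMSO, no enzyme.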
gsp ag: activates gsp, the McCune-Albright syndrome mutation. gsp mutant cells, cAMP HTRF, 30 min; control for the full effect not named in the record. Potency, µM (doses to about 76.9 µM), without a hit: at the highest dose activation (cAMP increase), most hits filed as activators. actives 0.13% (n = 340,000). AID 624287; active = well fitted activation curve with a large enough effect; inconclusive = small, poorly fitted or top-dose-only effect, or another doubt; inactive = no such curve, though single readings can be large or run the other way; cell line not stated here;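 also: phosphodiesterase inhibitor Ro 20-1724 added with compounds to block cAMP breakdown; potency is read from the fitted curve at half-maximal effect; nearly all actives have a fitted effect of over 60% in size; about a fifth of the inactives were tested at one dose only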
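Cells stably selected in G418 were plated at 2000/well, grown 16-24 hr, then given compounds in DMSO with the PDE inhibitor […] (300 uM solution added) for 30 min at 37C; cAMP was read by HTRF.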
gsp antag: gsp mutant antagonism; actives 0.4% (n = 340,000); AID 624288; Potency, µM (titrated, usually from 76.9 µM), inactives show top-dose activity change, negative = inhibition, actives largely listed as inhibitors; gsp-mutant cells, cAMP HTRF, 30 min; control for the full effect not named in the record; active = falling curve of any shape with a large fitted effect; inconclusive = falling curve, mostly with a smaller effect; inactive = flat or rising curve; cell line not stated here;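 also: intracellular cAMP measured with PDE inhibitor Ro 20-1724 present during compound exposure; potency is read from the fitted curve at half-maximal effect; % is scaled to controls: 0 for no effect and ±100 for the full control effect; nearly all actives have a fitted effect of over 65% in size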
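Measurement of cellular cAMP by homogeneous time-resolved fluorescence following a 30 min compound exposure at 37C. The PDE inhibitor […] was present throughout; the assay buffer was DPBS with 0.05% BSA and 0.005% Tween 20.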
Starred values were filed as active, the others as inactive; ? = inconclusive; · = no result given; & = joins results of further samples; [ ] = dose if it differs, or a comment.

compound	D2 agonist	PINK1 modulator	Sfp inh	Menin MLL FP FL	ClpP mod	gsp ag	gsp antag
COc1cc(C(=O)N2CCN(C3CCC(C)CC3)CC2)cc(OC)c1OC (stereo not drawn)	-3.7	1.1%	-15.4%	-1.4	3.6%	4.6%	7.5%
CCN1CCCC1CNc1ncnc2c1[nH]c1ccc(Cl)cc12 (stereo not drawn)	1.2	1.7%	-17.0%	-1.3	-25.7%	-14.4%	4.6%
CC1(C)OC(=O)N(Cc2ccco2)C1(C)O (stereo not drawn)	-1.0	3.2%	-24.6%	-0.1	2.5%	-39.3%[inhibitor]	9.3%
O=C(OCCOc1ccccc1Cl)c1cc(S(=O)(=O)N2CCCCC2)ccc1N1CCOCC1	-2.1	0.9%	·	·	?	12.5%	-4.0%
COc1ccc(CC(=O)NCC(=O)NC(Cc2ccccc2)C(=O)O)cc1 (stereo not drawn)	-4.3	1.5%	6.4%	4.9	0.1%	-5.5%[15.4 µM]	-8.2%
O=c1cc(SCc2ccc(Cl)cc2Cl)nc[nH]1	-0.1	4.0%	·	·	-1.5%	2.1%	-1.1%
COC(=O)c1ccc(NS(=O)(=O)c2ccc(Cl)cc2)o1	4.0	0.9%	14.6%	8.9	·	-9.4%[15.4 µM]	2.8%
COCCCNC(=O)c1ccc(Cn2c(=O)c3ccccc3n(CC(=O)NCc3ccco3)c2=O)cc1	-4.1	2.9%	13.4%	2.1	-6.7%	11.3%	-1.4%
CN1CCN(c2ccc(-c3ccnn3C(=O)Nc3ccccc3)cc2)CC1	-2.6	-2.0%	-1.1%	-1.5	-16.4%	4.8%	7.2%
COc1cc(C2CC(=O)C=C(O)C2)cc(OC)c1OC (stereo not drawn)	-0.5	3.0%	3.2%	9.4	-2.3%	?	-15.8%

compound	D2 agonist	PINK1 modulator	Sfp inh	Menin MLL FP FL	ClpP mod	gsp ag	gsp antag
COC(=O)c1c(C(=O)OC)c2n(c1C)CCC2	-1.0	-1.9%[38.3 µM]	5.5%	-1.3	1.4%	-2.3%	5.4%
Cc1ccc(S(=O)(=O)C/N=C(/NC(=S)N(c2ccccc2)c2ccccc2)c2ccccc2)cc1	-1.5	·	31.6µM*	-0.3	0.4%	-23.3%	0.7%
CNC(=O)COc1ccccc1C(=O)Nc1ccc2c(c1)oc1ccccc12	0.0	10.7%	5.1%	8.1	3.98µM*	-42.5%[inhibitor]	8.2%
CCOc1ccccc1OCCN1CCCC1	-1.6	0.1%	11.5%	0.2	-0.9%	?	3.4%
CCc1nc2c(OCc3ccc(C(F)(F)F)cc3)cccn2c1N(C)C(=O)CC(C)C	-3.8	6.6%	·	·	1.2%	·	·
O=c1c2ccccc2nc(/C=C/c2cc(Br)ccc2O)n1CCO	12.7	-0.8%	·	·	-3.6%	1.2%	?
COCCn1nnnc1CN1CCN2CCCC2C1 (stereo not drawn)	1.1	0.5%[38.3 µM]	18.4%	2.7	-0.1%	-40.8%	9.0%
CC(=O)OC1(C(C)=O)CCC2C3CC(Cl)C4=CC(=O)CCC4(C)C3CCC21C (stereo not drawn)	6.4	?	·	·	·	-19.0%	-14.7%
COc1cccc(-c2cncnc2NCc2ccccc2)c1	·	9.6%	-7.0%	2.6	·	·	·
COc1cccc(NC(=O)/C=C/c2ccc(S(=O)(=O)N3CCOCC3)cc2)c1	-2.1	-0.4%	·	·	-4.8%	-44.2%[inhibitor]	?

compound	D2 agonist	PINK1 modulator	Sfp inh	Menin MLL FP FL	ClpP mod	gsp ag	gsp antag
COC(C(=O)C(O)C(C)O)C1Cc2cc3cc(OC4CC(OC5CC(O)C(O)C(C)O5)C(O)C(C)O4)c(C)c(O)c3c(O)c2C(=O)C1OC1CC(OC2CC(OC3CC(O)C(OC)C(C)O3)C(O)C(C)O2)C(O)C(C)O1 (stereo not drawn)	3.0	1.1%	·	·	4.6%	8.0%	5.7%
O=C(Nc1ccc(Cl)cc1)N1CCC(c2nc(-c3ccccc3Cl)no2)CC1	3.1	13.4%	-2.3%	1.4	1.1%	-0.4%	-22.2%
O=c1[nH]c(CN2CCN(c3ccccn3)CC2)nc2c(Br)cc(Br)cc12	-5.2	3.2%	2.8%	2.6	-7.4%	?	2.7%
CN(C(=O)COC(=O)c1ccccc1C(=O)N1CCN(c2ccccc2)CC1)c1ccccc1	-8.2	3.2%	7.1%	-10.3	1.4%	2.9%[15.4 µM]	-17.2%
Cc1ccccc1-n1cc(-c2ccc(Br)cc2)nc1SCC(N)=O	4.3	-0.9%	-5.4%	0.9	·	17.6%	3.8%
COc1ccc(NC(=S)N(CCN(C)C)C(C)c2ccco2)cc1Cl (stereo not drawn)	-0.5	1.3%	-11.3%	0.4	1.8%	-2.0%	6.6%
O=C(O)c1cccc2c1C(=O)c1ccc(-c3ccc(Cl)c(C(F)(F)F)c3)cc1S2(=O)=O	-7.2	0.3%	·	·	-19.9%	-2.0%	4.4%
COc1cccc(C(C)NC(=O)Nc2cc(Cl)ccc2OC)c1 (stereo not drawn)	-4.2	2.3%	18.2%	0.4	·	1.7%[15.4 µM]	·
Cc1ccc2nc(C)cc(NCCO)c2c1	2.0	-1.2%	-1.9%	3.2	?	18.7%	-3.3%
COc1cccc(CNC(=S)Nc2ccc(Cl)cc2C)c1	2.0	-0.9%	13.2%	0.2	0.2%	-0.5%[15.4 µM]	-2.4%

compound	D2 agonist	PINK1 modulator	Sfp inh	Menin MLL FP FL	ClpP mod	gsp ag	gsp antag
Nn1c(SCC(=O)Nc2cccc(C(F)(F)F)c2)nncc1=O	2.3	3.3%	-16.9%	-1.6	-0.4%	?	?
Cc1ccc(Cl)cc1N1CCN(C(=O)C2CCCN(S(=O)(=O)c3cnc[nH]3)C2)CC1 (stereo not drawn)	-4.0	-0.5%	-0.8%	-0.6	-1.2%	-88.5%[inhibitor]	?
CCOc1ccc(CN(C)C(=O)[C@H](Cc2ccccc2)NC(=O)OCc2ccccc2)cc1OC	-4.7	-2.0%	2.3%	2.4	-4.1%	9.7%[15.4 µM]	-17.1%
COCCN(C(=O)CCC(=O)Nc1cc(C)on1)C(C(=O)NC1CCCC1)c1ccc(C(C)C)cc1 (stereo not drawn)	-0.1	1.0%	22.5%	-0.1	·	-7.0%[15.4 µM]	-5.7%
CCN1CCN(CC(=O)Nc2cc(S(=O)(=O)N3CCCCC3)ccc2Cl)CC1	-2.2	-0.5%	·	·	·	0.4%	6.3%
CCOc1cc(C2NC(=O)c3ccccc3O2)ccc1OC(C)C (stereo not drawn)	-4.0	-1.0%	3.0%	2.0	4.1%	-51.0%[inhibitor]	8.4%
CC(C)(C)c1ccc(/C=C2\Oc3c(ccc(O)c3CN3CCN(CCO)CC3)C2=O)cc1	-6.6	1.0%	-12.5%	?	-0.9%	?	-12.9%
CCC(CC)CN1CCC(CN2C(=S)NC[C@@H]2CC(C)C)CC1	-2.3	1.7%	·	·	-1.2%	·	7.6%
CCOc1cccc(CNCCO)c1OCc1ccc(Cl)cc1Cl	-1.4	-1.5%	?	0.8	0.3%	2.0%	17.8%
CCN1C(=NCC(C)C)N[C@@H](CCc2ccccc2)[C@H](C(=O)NCC(C)C)[C@H]1C	1.9	2.6%	-1.3%&11.7%	1.4&-0.8	-2.3%	·	8.2%

compound	D2 agonist	PINK1 modulator	Sfp inh	Menin MLL FP FL	ClpP mod	gsp ag	gsp antag
CN(CC(=O)NC1CCCCC1)S(=O)(=O)c1cccc2nsnc12	-2.8	-3.2%	11.9%	1.1	-0.9%	-27.0%	-12.8%
COc1cc(Cl)c(CN2CCCC(CO)(Cc3cccc(Cl)c3)C2)cc1OC (stereo not drawn)	0.1	14.8%	15.6%	5.1	0.7%	-32.4%[inhibitor]	1.1%
COc1ccc(/C=N/NC(=O)CSc2ccccn2)cc1OC	1.6	-0.5%	6.0%	4.6	·	-14.5%[15.4 µM]	8.8%
CCOC(=O)c1cnc2c(ccc3ccccc32)c1NCCN(C)C	-2.2	8.8%	4.9%	0.6	4.2%	-0.5%	-1.3%
CCN(CC)S(=O)(=O)c1cccc(C(=O)N/N=C2\CC(=O)CC(C)(C)C2)c1	-0.4	2.1%	10.5%	?	·	6.8%[15.4 µM]	·
CN(C1CC(C)(C)N(O)C(C)(C)C1)S(=O)(=O)CC12CCC(CC1=O)C2(C)C (stereo not drawn)	3.7	-2.0%	0.8%	-2.7	-22.9%	1.6%[15.4 µM]	-11.4%
Cc1ccc(-c2cc(C(=O)NCC3CCCO3)c3ccccc3n2)cc1C (stereo not drawn)	-1.6	1.7%	-8.3%	-0.9	·	3.8%[15.4 µM]	1.6%
COc1ccccc1N1CCN(C(=O)c2oc3c(c2C)C(=O)CC(C)(C)C3)CC1	3.6	1.8%	0.9%	·	-0.7%	1.2%	4.8%
CC(C)(CN1CCN(Cc2ccccc2)CC1)NS(=O)(=O)c1ccccc1	-1.1	-1.6%	12.8%	2.7	·	1.5%[15.4 µM]	-3.0%
C=CCNS(=O)(=O)c1sccc1/C=N/O	-1.1	5.0%[38.3 µM]	1.4%	3.3	-1.0%	2.0%	-5.2%

compound	D2 agonist	PINK1 modulator	Sfp inh	Menin MLL FP FL	ClpP mod	gsp ag	gsp antag
Nc1nonc1-n1nnc(C(=O)N/N=C/c2cccc(Cl)c2Cl)c1CN1CCCC1	-1.1	12.1%	22.6%	-5.5	·	24.3%	0.0%
CC(C(=O)Nc1ccc2c(c1)OCCO2)c1ccc([N+](=O)[O-])cc1 (stereo not drawn)	-1.9	1.6%	-0.9%	0.2	0.7%	?	-5.4%
COc1ccc(OCc2cc(C(=O)N(C)CC3CCCCO3)no2)c(Cl)c1 (stereo not drawn)	-4.4	-1.2%	5.9%	-4.5	-2.9%	4.2%[15.4 µM]	1.2%
O=C(CSc1ncn[nH]1)Nc1ccc(S(=O)(=O)N2CCCC2)cc1	-1.9	0.6%	1.6%	-1.8	-0.6%	5.0%	-16.5%
CN1C(=O)c2ccc(NC(=O)C3CCCCC3)cc2C1=O	-0.5	·	-3.9%	3.5	31.6µM*	1.0%	4.3%
O=C(O/N=C\c1ccc(N2CCCCC2)c([N+](=O)[O-])c1)c1c(F)cccc1F	-0.8	-0.9%	6.2%	2.2	0.8%	?	1.6%
